Cruzain inh Det – inhibitors of Trypanosoma cruzi cruzain with detergent | Potency, µM, inactives show max response, negative = inhibition, most hits filed as inhibitors | P25779 | purified cruzain, Z-FR-AMC fluorescence, 0.01% Triton | 0.43% of 200,000 active | AID 1478;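 note: plate controls were neutral wells for no effect and buffer without enzyme for full effect; nearly all actives have a fitted effect of over 40% in size; top concentration of the series not given in the record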
Target sequence (P25779 123-467 limits assumed): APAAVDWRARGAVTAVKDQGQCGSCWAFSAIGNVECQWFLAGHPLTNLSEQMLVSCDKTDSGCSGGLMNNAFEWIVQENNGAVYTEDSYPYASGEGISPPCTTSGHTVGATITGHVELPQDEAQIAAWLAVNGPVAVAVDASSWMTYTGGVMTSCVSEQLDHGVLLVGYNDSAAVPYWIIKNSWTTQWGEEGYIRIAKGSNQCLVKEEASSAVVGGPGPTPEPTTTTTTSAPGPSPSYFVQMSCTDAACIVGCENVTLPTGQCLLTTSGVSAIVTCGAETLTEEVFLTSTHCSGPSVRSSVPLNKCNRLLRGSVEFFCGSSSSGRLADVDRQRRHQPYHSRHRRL
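Detergent-containing arm of a paired screen for aggregation-based inhibition: 0.01% Triton X-100 present. Cruzain at 1.5 nM cleaved 2 uM Z-FR-AMC at pH 5.5 with 5 mM DTT; AMC fluorescence gain over 60 s measured activity.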
2A StopGo – FMDV 2A StopGo reporter, luciferase signal; 1.2% of 410,000 active; human cells with a luciferase reporter of 2A StopGo recoding; control for the full effect not named in the record; Potency, µM (top dose mostly 57.9 µM), for the others: at the top dose signal change, negative = less light; active = well fitted falling curve with a large enough effect; inconclusive = small, poorly fitted or top-dose-only effect; inactive = no such curve, though single readings can be large or run the other way; tested in HEK293T cells; note: % is set by controls: 0 for no effect and ±100 for the full control effect; nearly all actives have a fitted effect of over 45% in size; luciferase light after 4 h
Cruzain noTriton – blocks cruzain activity in detergent-free assay | purified cruzain, Z-FR-AMC fluorescence, no detergent | Potency, µM, without a hit: max response, negative = inhibition, most hits filed as inhibitors | 2.3% of 200,000 active;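 note: plate controls were enzyme without inhibitor for no effect and buffer without enzyme for full effect; nearly all actives have a fitted effect of over 40% in size; top concentration of the series not given in the record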
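Purified cruzain at 1.5 nM, pre-incubated 15 min with compound at room temperature in 100 mM sodium acetate pH 5.5, 5 mM DTT, 0.00005% Triton X-100. Reaction started with 2 uM Z-FR-AMC; AMC fluorescence increase over 60 s gives rate.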
SARS PLpro yeast – blocks SARS-CoV papain-like protease in a yeast assay; S. cerevisiae expressing SARS-CoV PLpro, growth rescue; control for the full effect not named in the record; Potency, µM (top dose mostly 32.9 µM), for the others: at the highest dose activity, positive = growth rescue; 0.19% of 330,000 active; AID 485353; active means well fitted rising curve with a large enough effect; inconclusive means small, poorly fitted or top-dose-only effect; inactive means no such curve, though single readings can be large or run the other way; note: 0% is about no effect; nearly all actives have a fitted effect of over 55% in size; growth read by luminescence after 48 h
MARV entry inh – blocks Marburg virus binding to or entry into cells; 1.8% of 300,000 active; Marburg virus pseudotyped entry inhibition, cell reporter; control for the full effect not named in the record; about a third of the inactives were read at about 46 µM; Potency, µM (top dose mostly 37.8 µM), inactives show at the highest dose activity change, negative = inhibition, most hits filed as inhibitors; active = well fitted inhibition curve with a large enough effect; inconclusive = small, poorly fitted or top-dose-only effect, or effect the other way; inactive = flat fitted curve, though single readings scatter; tested in HEK293 cells; about a fifth of its hits are not listed in these tables; note: % is set by controls: 0 for no effect and ±100 for the full control effect; luciferase read-out
Lassa entry inh – inhibitors of Lassa virus binding or cell entry. Potency, µM (highest dose often 37.9 µM), inactives show at the highest dose activity change, negative = inhibition, usual class: inhibitors. AID 540256. Lassa virus pseudotype entry inhibition, cell reporter; control for the full effect not named in the record. 1.2% of 300,000 active; active means well fitted inhibition curve with a large enough effect; inconclusive means small, poorly fitted or top-dose-only effect, or effect the other way; inactive means flat fitted curve, though single readings scatter; tested in HEK293 cells; note: % is set by controls: 0 for no effect and ±100 for the full control effect; nearly all actives have a fitted effect of over 50% in size; luciferase read-out
RE007 growth inh – less growth of the S. pombe RE007 Vpr strain; AID 651644; Potency, µM (highest dose often 92.2 µM), inactives show at the highest dose activity change, negative = less growth; S. pombe RE007 Vpr strain, BacTiter-Glo ATP luminescence, 24 h; control for the full effect not named in the record; 0.21% of 360,000 active; active = well fitted falling curve with a large enough effect; inconclusive = small, poorly fitted or top-dose-only effect; inactive = no such curve, though single readings can be large or run the other way;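 note: % is set by controls: 0 for no effect and ±100 for the full control effect; nearly all actives have a fitted effect of over 50% in size; the assay follows cell death caused by Vpr and the record does not say whether a fall means rescue or toxicity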
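Fission yeast strain RE007, carrying one chromosomally integrated HIV-1 vpr copy, was seeded at OD 0.01 in PMG+AL medium with 23 nL pinned compound. After 24 h at 30 °C and 99% humidity, viability was read by BacTiter-Glo luminescence.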
NS1 function inh – inhibitors of influenza NS1 protein function. S. cerevisiae slowed by influenza A NS1, growth recovery by OD600. Potency, µM (highest dose often 46.1 µM), without a hit: at the top dose activity, positive = more growth. 0.4% of 270,000 active; active means well fitted rising curve with a large enough effect; inconclusive means small, poorly fitted or top-dose-only effect; inactive means no such curve, though single readings can be large or run the other way; note: nearly all actives have a fitted effect of over 50% in size
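S. cerevisiae expressing influenza A NS1, grown in glucose, washed, then diluted 1:100 into pH 6.0 -URA galactose medium with 23 nl compound. Growth recovery read as OD600; NS1-free strain serves as control.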
* hit, by the source's call; u = inconclusive; x = not tested or not shown; & = joins results of further samples; [ ] = another dose, or the depositor's remark. Unless noted, calls come from the whole dose curve; as a rule, active = well fitted curve in the direction sought with a large enough effect; inconclusive = small, poorly fitted or top-dose-only effect, or another doubt; inactive = no such curve, though single readings can be large; an effect the other way counts as inactive or inconclusive. Potency is the fitted concentration of half-maximal effect.

cpd | SMILES | Cruzain noTriton | SARS PLpro yeast | MARV entry inh | RE007 growth inh | NS1 function inh | 2A StopGo | Lassa entry inh | Cruzain inh Det
1 | Cc1nn(CC(=O)NCc2cccc3ccccc23)c(=O)c2ccccc12 | 1% | -1% | u | 5% | 13% | 13% | -29% | -0.2%
2 | COc1cccc(N2CCN(c3nc(C)cc(C)c3C#N)CC2)c1 | x | -10% | x | 0% | 18% | -17% | x | x
3 | O=C(NC(=S)N1CCN(c2ccc([N+](=O)[O-])cc2)CC1)c1ccccc1 | x | 1% | 1%[46.1 µM] | 7% | x | -4% | -2%[46.1 µM] | x
4 | Cc1cc(C(=O)N/N=C/C=C/c2ccccc2)c(C)o1 | 8% | -10% | -1% | -16% | -1% | -8% | 2% | -6.4%
5 | CCn1cc(CCC(=O)O)c(C)n1 | x | 2% | 24%[46.1 µM] | 3% | x | -6% | 12% | x
6 | COc1ccc(C(=O)NCC(c2cccnc2)N2CCc3ccccc3C2)cc1OC (stereo not given) | -2% | x | x | x | x | -13% | 6%[46.1 µM] | -4.2%
7 | CCc1cccc(OCCCN2C(=O)NC(C)(C)C2=O)c1 | 5% | 2% | 16% | 1%[3.69 µM] | 0% | -16% | 0% | 4.3%
8 | O=C(NCCCn1ccnc1)c1ccccc1Br | x | -1% | x | 1% | 5% | -12% | x | x
9 | CCCC(=O)Nc1sc(-c2ccccc2)c(-c2ccccc2)c1C(=O)O | x | x | -7% | 32% | x | -25% | -3% | x
10 | Cc1cc(N2CCN(C)CC2)nc2ccc(NC(=S)N3CCCCC3)cc12 | x | -1% | u | -14% | 8% | 4% | u | x
11 | COc1ccc(C(=O)CC(Nc2ccc([N+](=O)[O-])cc2)c2ccc(Cl)cc2)cc1 (stereo not given) | u | -10% | u | -1% | 5% | -16% | u | 0.6%
12 | CC12CCC3c4cc(CN5CCOCC5)c(O)cc4CCC3C1CCC2=O (stereo not given) | x | x | -3% | 3% | x | -22% | -7% | x
13 | O=C(CN1CCCCCC1)Nc1ccccc1 | x | 7% | u | 6% | 1% | -1% | 1%[46.1 µM] | x
14 | O=C1NCCCC1C(=O)NCCNC(=O)C(F)(F)F (stereo not given) | -6% | 0% | 1% | -3% | 3% | x | 16% | 2.5%
15 | O=C(c1cccs1)n1nc(-c2ccc(Cl)cc2)nc1NCc1ccco1 | u | 6% | 1% | 1%[3.69 µM] | -4% | -13% | 13% | -2.5%
16 | FC(F)(F)c1ccc2c(c1)ncn2C1CCN(Cc2nnnn2C2CCCCC2)CC1 | u | -1% | u | 16% | -46% | u | 10% | -11%
17 | Cc1cccc2cc3c(NC(=O)C(C)(C)C)nn(CC(C)C)c3nc12 | x | -7% | u | -6% | 4% | -17% | 11% | x
18 | CCN(c1ccccc1)S(=O)(=O)c1cc(C(=O)Nc2ccccc2Cl)ccc1F | -2% | 21% | u | 15% | -1% | u | u | -4.5%
19 | NNC1=N[C@H]2CS(=O)(=O)C[C@H]2S1 | -12% | u | u | 4% | 14% | -6% | 16% | -1.1%
20 | COc1ccc(N2C(=O)c3cccc4c(N(C)CCO)ccc(c34)C2=O)cc1 | x | -5% | x | 3% | 20% | 7% | x | x
21 | CCCOc1ccc(C(=O)NC(=S)Nc2nc3ccccc3s2)cc1 | u | -3% | 7% | 4% | -5% | x | 7% | 1.7%
22 | CCCCc1cc(=O)oc2cc(OCc3nn[nH]n3)ccc12 | x | 0% | -17% | 0% | 5% | -5% | 1% | x
23 | O=C1CN(S(=O)(=O)c2cc(C(=O)O)ccc2Cl)c2ccccc2N1 | x | 1% | -7%[46.1 µM] | -25% | 4% | -7% | 5% | x
24 | OCCC1CN(C/C=C/c2ccco2)CCN1Cc1ccccc1 (stereo not given) | x | -2% | -16% | -3% | 0% | -3% | -2% | x
25 | O=C(CSc1ccc(-c2ccc3c(c2)OCO3)nn1)Nc1nccs1 | x | -1% | u | -20% | 1% | -27% | u | x
26 | Cn1c(=O)c2c(nc(N3CCCCCC3)n2CC(=O)c2ccc(Br)cc2)n(C)c1=O | 24% | u | 13% | 15% | 6% | 1% | -16% | -0.2%
27 | O=C(COc1ccccc1)Nc1c2c(nn1-c1ccc(F)cc1)CS(=O)(=O)C2 | x | -3% | 20% | 3% | 7% | -12% | -9% | x
28 | COc1ccccc1OCC(=O)N/N=C1/C=C(C)CC1 | x | 0% | 7%[46.1 µM] | 1% | x | 10% | u | x
29 | CCN(CC)C(=O)COc1ccc(N(C)S(=O)(=O)c2ccc(NC(C)=O)cc2)cc1 | x | 0% | x | 7% | 8% | -15% | x | x
30 | Cc1ccc[n+](-c2[nH]c(=O)sc2/C=N/N=C(\[O-])CCn2c3ccccc3c3ccccc32)c1 | x | 0% | 18% | -10% | 4% | -12% | -2% | x
31 | CCOc1cc(-n2cnnn2)c(OCC)cc1NC(=O)c1cnccn1 | 10% | -3% | -2% | -12% | 3% | x | -3% | 1.6%
32 | Cc1cc(C)n2c(Nc3ccc4c(c3)OCCO4)c(-c3ccco3)nc2n1 | 3% | 4% | 0% | x | 7% | x | x | -7.1%
33 | CC(C)CC(=O)Nc1ccc(S(=O)(=O)N2CC3CC(C2)c2cccc(=O)n2C3)cc1 (stereo not given) | x | 4% | u | -1% | x | -1% | 2% | x
34 | C/C(=C\C(=O)c1cccnc1)Nc1ccc(C)c(C)c1 | 6% | -3% | 2% | 4% | -95% | x | u | -6.1%
35 | Cc1ccc(OCc2csc(N)n2)cc1 | x | -8% | -3% | u | x | 51%[activator] | u | x
36 | CCN(Cc1ccccc1)S(=O)(=O)c1ccc(F)c(C(=O)Nc2cc(C)ccc2OC)c1 | -8% | x | x | x | x | -16% | 17%[46.1 µM] | 1.4%
37 | N#CCSc1nc2c(cc1C#N)CCCCCC2 | 2% | -19% | -9%&-9% | 6% | -20% | -17% | u | -6.1%
38 | CC1(C)SC(=S)N(/N=C/c2cccnc2)C1N(O)C(=O)Nc1ccccc1 (stereo not given) | x | 0% | 0% | -1% | -2% | 41%[activator] | x | x
39 | COCCn1c(SCC(=O)Nc2sc(C)c(C)c2C#N)nnc1C(C)C | 7% | 4% | 7% | 2% | -2% | -11% | 3% | -6.9%
40 | CN(C)CCCN(C(=O)c1ccco1)c1nc(-c2ccc(Cl)cc2)cs1 | x | 1% | x | 2% | -7% | -14% | x | x
41 | CC1(C)C(=O)C2(CCCCC2)C(=O)OC1C(=O)c1ccccc1 (stereo not given) | -4% | -19% | -17% | 4% | 2% | 0% | 2% | -6.7%
42 | Cc1ccc(NC(=O)c2ccccc2-c2ccccc2C(=O)O)cc1 | -8% | 4% | u | 1% | 3% | -16% | 4% | -0.8%
43 | COc1ccc(-c2nc3scc(CCNS(=O)(=O)c4ccccc4F)n3n2)cc1 | -10% | x | x | x | x | -3% | 0%[46.1 µM] | -1.5%
44 | O=C(CCCc1ccccc1)Nc1ccc2c(c1)OCCO2 | x | 0% | u | 15% | -5% | -11% | 8.9µM* | x
45 | COc1ccc(NC(=O)CN(C)C(=O)c2cc(-c3ccccc3)nc3ccccc23)cc1 | x | x | u | 22% | x | u | u | x
46 | Cn1ncc([N+](=O)[O-])c1C(=O)Nc1ccc(-c2ccccc2)cc1 | x | 6% | 3%[46.1 µM] | -3% | 10% | 19% | u | x
47 | O=C(OCc1nnc(-c2ccccc2)o1)c1ccc(S(=O)(=O)NCc2ccco2)cc1 | -9% | -2% | 19%[46.1 µM] | -2% | -17% | 7% | 4% | -10%
48 | O=C(NNC(=O)c1cc(S(=O)(=O)N2CCOCC2)c(Cl)cc1Cl)c1ccccc1F | x | -1% | -12%[46.1 µM] | 5% | x | -19% | 9%[46.1 µM] | x
49 | Cc1cc(C)c(C(=O)/C=C/c2ccc3c(c2)OCO3)c(=O)[nH]1 | x | 0% | -19%[46.1 µM] | -12% | 7% | 5% | -22% | x
50 | COc1ccc(N(C(=O)CNC(=O)c2cccs2)C(C(=O)NCC2CCCO2)c2ccccc2)cc1 (stereo not given) | x | 0% | u | 0% | 6% | 15% | -12% | x
51 | COC(=O)CCC(=O)N1CN2CN(C(=O)CCC(=O)OC)CC([N+](=O)[O-])(C2)C1 | x | 1% | x | 19% | 4% | -10% | x | x
52 | O=c1c2cccc3c2c(nn1CN1CCOCC1)-c1ccccc1-3 | -9% | -19% | u | u | -66% | -11% | u | -3.6%
53 | CC(C)CCOc1ccc(C2(C)NC(=O)NC2=O)cc1 (stereo not given) | x | 5% | x | 7% | 6% | 0% | x | x
54 | COc1ccccc1C(=O)Nc1ccc(S(=O)(=O)N2CCN(C)CC2)cc1 | x | x | 10% | 32% | x | -1% | 12% | x
55 | Cc1ccc(S(=O)(=O)N2CCN(C(=O)c3ccco3)CC2)cc1 | x | -4% | 2% | 2% | -10% | -12% | 3% | x
56 | O=C(Nc1cc2c3c(c1)CC(=O)N3CCC2)C1CCCCC1 | x | -3% | -2% | 3% | x | 4% | 7% | x

(listing goes on)
cpd | SMILES | Cruzain noTriton | SARS PLpro yeast | MARV entry inh | RE007 growth inh | NS1 function inh | 2A StopGo | Lassa entry inh | Cruzain inh Det
57 | COc1ccc(CCNC(=O)CNCC2CCCCC2)cc1OC | x | 0% | x | 0% | 0% | -16% | x | x
58 | CCCS(=O)(=O)c1cscc1NC(=O)c1c(-c2c(F)cccc2Cl)noc1C | x | 1% | u | 2% | -2% | u | -11% | x
59 | O=C(NC1CCCC1)C(c1cccnc1)N(C(=O)c1csnn1)c1ccccc1 (stereo not given) | x | -14% | -2%[46.1 µM] | 2% | -1% | -3% | -3% | x
60 | COc1cc(-c2nnc(SCC(=O)Oc3ccccc3Cl)o2)cc(OC)c1OC | 4% | x | 0%[46.1 µM] | x | x | -9% | -5%[46.1 µM] | -5.8%
61 | Cc1n(N)c2ccccc2[n+]1CC(=O)c1ccccc1 | x | 0% | 12%[46.1 µM] | -18% | -1% | -6% | 5% | x
62 | COc1ccc(CCC(=O)NCCc2csc(-c3cccc(C)c3)n2)cc1 | 23% | x | x | x | x | -21% | 0%[46.1 µM] | -6.0%
